GIV Gai3 FP: GIV-Galpha-i interaction inhibition | P08753 | Galpha-i3/FITC-GIV peptide fluorescence polarization, 90 min; hits give low values; scaled: aluminum fluoride 0%, vehicle 100% | percent of control (FP), % (concentration not given with the values) | hit rate 0.42% among 210,000;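 active means replicate mean at 85% of control or lower, very high polarization wells dropped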;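 further: wells of about 15 µL received 100 nL stock; the first replicate is given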
Target sequence (P08753 whole entry, looked up): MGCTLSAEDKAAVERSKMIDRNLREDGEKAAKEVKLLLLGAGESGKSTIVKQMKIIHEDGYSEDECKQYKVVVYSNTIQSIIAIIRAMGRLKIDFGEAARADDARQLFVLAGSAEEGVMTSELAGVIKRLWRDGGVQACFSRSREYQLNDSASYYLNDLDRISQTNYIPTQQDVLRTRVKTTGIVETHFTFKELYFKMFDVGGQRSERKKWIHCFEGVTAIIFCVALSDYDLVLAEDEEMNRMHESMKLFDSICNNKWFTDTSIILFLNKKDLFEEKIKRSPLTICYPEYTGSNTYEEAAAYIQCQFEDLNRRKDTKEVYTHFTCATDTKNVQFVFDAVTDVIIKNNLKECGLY
HCMV NEC inh: cytomegalovirus nuclear egress complex inhibition; hit rate 0.15% among 190,000; inhibition, % (test concentration not listed); AID 1918969; HTRF UL50-UL53 interaction, normalized percent inhibition;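 active means both replicates at 50% or more, plus weaker picks with an unusually low signal ratio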;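 further: stock transfer was 100 nL into about 20 µL; 0% = negative control wells and 100% = wells with untagged competitor protein; inactives centre near -12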
Sa growth inh: S. aureus growth inhibition; S. aureus RN4220 growth, OD600, 20 h, 42 °C; hits give low values; relative growth, % (no concentration beside the values); hit rate 0.53% among 170,000;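 active means growth at 42 °C up to 50% and 20 or more points under that at 30 °C, or under 10% at both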;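 further: 300 nL library stock went into each well; scaled to the means of positive and negative controls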
Sa growth inh second temp: also measured in Sa growth inh; calls as there; relative growth, %; measured here: growth at 30 °C;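 optical density after 20 h as mean of two plates; 100% = untreated growth and lower means inhibition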
* = called active by the depositor; / = not tested or not shown.

Under each structure: GIV Gai3 FP	HCMV NEC inh	Sa growth inh	Sa growth inh second temp
> Cc1ccc2ccc3cc(C(=O)N4CCCCC4)nc3c2[nH]1
 : 102.2	-4.2	/	/
> O=C(Nc1ccc(-c2csnn2)cc1)C1CC1
 : 95.3	-4.2	100.7	73.9
> N#CCc1ccc(NC(=O)CC(CC(=O)O)c2ccccc2)cc1 (configuration not stated)
 : 104.6	-6.8	99.5	98.5
> Cc1cc(NC(=O)C2CCCC2)n(-c2ncnc3c2cnn3-c2ccc(F)cc2)n1
 : 101.6	-0.5	/	/
> O=C(Cc1n[nH]c(=O)c2ccccc12)OCCCn1c(=O)[nH]c2ccccc21
 : /	15.2	113.2	93.2
> COC(=O)c1sccc1NNS(=O)(=O)c1ccccc1
 : 101.7	-26.3	85.1	77.2
> CCN(CC)CC(O)Cn1c(=O)n(CC(O)CN(CC)CC)c(=O)n(CC(O)CN(CC)CC)c1=O (configuration not stated)
 : 101.7	-9.7	91.1	83.3
> Cc1ccn2c(NC(=O)c3cccc([N+](=O)[O-])c3)c(-c3ccccc3)nc2c1
 : 97.5	-21.2	/	/
> CCOc1ccc(-c2nonc2NC(=O)COc2ccc(Cl)cc2)cc1OCC
 : 97.9	-14.1	/	/
> Cc1nn(C(=O)c2c(F)cccc2F)c(C)c1S(=O)(=O)N1CCOCC1
 : 102.4	/	76.3	90.4
> CNC(=S)N(Cc1ccc(OC)cc1OC)c1ccc(C(C)(C)C)cc1
 : /	-7.3	108.7	70.5
> CC(C)(C)C1CCc2nc(N)c3c(=O)oc4ccccc4c3c2C1 (configuration not stated)
 : 101.7	/	91.6	92.6
> Cc1nc(C)c(-c2ccc(SCC(=O)Nc3ccc(C)c(F)c3)nn2)s1
 : 95.7	/	95.7	70.4
> CC(=O)NC(=S)Nc1ccc(S(=O)(=O)N2CCOCC2)cc1
 : 105.0	-0.2	133.2	101.6
> CCN(CC)C(=O)Cn1cc(/C=C(\C#N)C(N)=O)c2ccccc21
 : 102.4	-125.8	99.6	92.4
> CCOC(=O)c1[nH]c(C)c(CCC(=O)NCc2ccccc2C)c1C
 : 99.7	/	81.0	93.1
> Cn1c(N)c(C(=O)NCc2ccccc2)c2nc3ccccc3nc21
 : 104.1	1.4	119.7	103.6
> Cc1cccc(-c2nc3nc(CN(C)Cc4ccccc4)cc(=O)n3[nH]2)c1
 : 96.0	-21.1	/	/
> CC(C)CSc1nc(-c2ccco2)c(C#N)c(=O)[nH]1
 : /	-49.5	43.8	16.4
> Cc1ccccc1Cn1c(-c2cncs2)nc2ccccc21
 : /	-3.0	117.8	100.3
> O=C(C1CCN(c2ccccc2)C1=O)N1CCOCC1 (configuration not stated)
 : 102.1	-31.6	/	/
> Cc1cc(=O)[nH]c(/N=C(\N)Nc2ccccc2)n1
 : 100.3	/	89.7	96.9
> CN1CCN(c2ccccc2NC(=O)c2ccc(Br)o2)CC1
 : 103.0	-4.9	109.5	96.2
> CCOc1ccccc1NS(=O)(=O)c1ccc2c(c1)oc(=O)n2C
 : 95.7	-41.4	107.0	79.1
> COCCn1nnc2cc(S(=O)(=O)N3CCCC3C(=O)NCc3ccc(Cl)cc3)ccc21 (configuration not stated)
 : 105.7	-6.7	/	/
> CCc1nc(NC(C)c2ccccc2)c2onc(-c3ccc(C)cc3)c2n1 (configuration not stated)
 : 106.8	-28.0	/	/
> CSc1ccccc1NC1=NS(=O)(=O)c2ccccc21
 : 95.6	/	85.4	83.0
> CSCCC(C(=O)Nc1ccc2c(c1)OCCO2)N1Cc2ccccc2C1=O (configuration not stated)
 : 104.4	-4.0	108.5	90.3
> CSc1ccc(-c2nnc(NC(=O)/C=C/c3cccs3)o2)cc1
 : 108.5	-24.5	15.8	14.4
> Cc1cccc(C)c1NC(=O)c1cc(-c2cccnc2)on1
 : 96.9	-8.6	/	/
> O=C1CSc2sc(=S)sc2S1
 : /	-21.9	37.6	54.2
> O=S1(=O)N(Cc2ccccc2F)CCCN1Cc1ccc(F)cc1Cl
 : 109.6	-6.4	/	/
> O=C(Cn1c(=O)oc2ccccc21)Nc1nc2c(s1)CCCC2
 : 104.0	-9.3	90.3	80.7
> O=C(OCC1COc2ccccc2O1)c1c(F)cccc1F (configuration not stated)
 : /	-34.1	100.2	95.4
> COc1ccc(C2CC(=O)C3=C(C2)Nc2onc(C)c2C3c2ccc(C(C)C)cc2)cc1OC (configuration not stated)
 : 106.2	-19.6	/	/
> O=C1NCCN1CCNS(=O)(=O)c1ccc2ccccc2c1
 : /	-16.5	108.1	88.2
> COc1ccc(C(=O)n2nc(-c3cccnc3)nc2NCc2ccccc2)cc1OC
 : 98.7	-36.8	107.7	86.7
> COc1cc(OC)nc(/N=C/NO)n1
 : 105.7	-2.0	99.5	88.2
> Cc1ccc(N2CC(C(=O)Nc3cccc(-c4noc(C)n4)c3)CC2=O)cc1 (configuration not stated)
 : 98.9	-1.9	/	/
> CCOC(=O)c1ccc2nc(C)cc(Nc3cccc(C(=O)O)c3)c2c1
 : 108.5	-11.6	101.1	104.0
> NS(=O)(=O)c1ccc(CCNC(=O)c2ccc3c(c2)N(Cc2ccccc2)CCS3)cc1
 : 107.4	6.8	122.7	96.4
> O=C(Nc1ccc2nc(SCC(=O)N3CCCc4ccccc43)sc2c1)c1cccc(Cl)c1
 : 107.7	-0.9	119.2	99.3
> Fc1cccc(-c2nc(-c3ccncc3)no2)c1
 : 106.7	/	122.1	86.4
> Fc1nc(F)c(F)c(SC(=S)N2CCOCC2)c1F
 : /	-25.6	88.2	85.2
> c1cc2n[nH]nc2cn1
 : /	-0.9	110.2	96.6
> O=S(=O)(c1ccccc1)c1nnn2c1nc(N1CCCC1)c1cc(Cl)ccc12
 : 101.3	12.2	94.4	97.2
> CSc1ncc(C(=O)Nc2ccc(C(C)=O)cc2)c(-c2ccccc2)n1
 : 100.4	/	119.7	93.5
> c1ccc(CN2CCN(Cc3ccccc3)C2c2c[nH]c3ccccc23)cc1
 : 100.0	/	92.2	77.6
> C(=N\n1cnnc1)/c1ccc(Nc2ccccc2)cc1
 : /	-104.5	109.5	63.9
> Nc1nc(SC#CC(F)(F)F)ns1
 : 94.3	-62.1	-0.6*	-0.6*
> O=c1oc2c(CN3CCOCC3)c(O)ccc2cc1-c1ccccc1
 : 102.0	/	98.2	86.8
> CCc1cc2c3c([nH]c2cc1S(=O)(=O)NC1CCCC1)CCCC3=O
 : 101.2	-8.2	105.6	79.5
> COc1ccc(C(=O)C(C#N)=C(SC)SC)cc1
 : 102.0	-8.2	97.2	89.2
> CCC(=O)c1ccc(OC(=O)c2ccc(N(CC)CC)cc2)cc1
 : /	-7.3	94.2	87.8
> Cc1ccc(CCNC(=O)CN2N=C(c3ccc(C)cc3)CCC2=O)cc1
 : 97.1	/	77.1	95.8
> Cc1nnc(C(=O)Nc2ccc(C(=O)N3CCN(c4ccccn4)CC3)cc2)s1
 : 101.0	-28.6	/	/
> Cn1c(C(C#N)C(=O)c2ccc(S(=O)(=O)N3CCOCC3)cc2)nc2ccccc21 (configuration not stated)
 : /	3.0	80.0	85.7
> N#CC(C#N)=C1CSc2ccccc2N1
 : /	-4.1	102.4	87.7
> CCOc1ccc(-c2c(C#N)c(N)nc3sc(C(=O)c4ccc(C)cc4)c(N)c23)cc1
 : 99.3	-15.5	/	/
> CCCCOc1cccc2c1CCN(CC)C2=O
 : 94.4	-15.2	96.6	81.9

Seven of the entries above in order of their number in Sa growth inh second temp, rising:
| Compound | GIV Gai3 FP | Sa growth inh second temp |
| --- | --- | --- |
| CSc1ccc(-c2nnc(NC(=O)/C=C/c3cccs3)o2)cc1 | 108.5 | 14.4 |
| C(=N\n1cnnc1)/c1ccc(Nc2ccccc2)cc1 | / | 63.9 |
| CCCCOc1cccc2c1CCN(CC)C2=O | 94.4 | 81.9 |
| COc1ccc(C(=O)n2nc(-c3cccnc3)nc2NCc2ccccc2)cc1OC | 98.7 | 86.7 |
| O=c1oc2c(CN3CCOCC3)c(O)ccc2cc1-c1ccccc1 | 102.0 | 86.8 |
| Cc1ccc(CCNC(=O)CN2N=C(c3ccc(C)cc3)CCC2=O)cc1 | 97.1 | 95.8 |
| N#CCc1ccc(NC(=O)CC(CC(=O)O)c2ccccc2)cc1 (configuration not stated) | 104.6 | 98.5 |

Pulled one by one from above (three):
Under each structure: GIV Gai3 FP	HCMV NEC inh	Sa growth inh	Sa growth inh second temp
> CSc1ncc(C(=O)Nc2ccc(C(C)=O)cc2)c(-c2ccccc2)n1
 : 100.4	/	119.7	93.5
> CCc1cc2c3c([nH]c2cc1S(=O)(=O)NC1CCCC1)CCCC3=O
 : 101.2	-8.2	105.6	79.5
> Fc1nc(F)c(F)c(SC(=S)N2CCOCC2)c1F
 : /	-25.6	88.2	85.2

The listing continues:
Under each structure: GIV Gai3 FP	HCMV NEC inh	Sa growth inh	Sa growth inh second temp
> Cc1ccc2c(c1)c(=O)c1ccccc1n2CC(=O)Nc1cc(Oc2ccc(F)cc2)cc([N+](=O)[O-])c1
 : 116.2	1.3	/	/
> N#Cc1ccccc1NC(=O)CSc1nc2c(cc1C#N)CCCCC2
 : 98.7	17.2	/	/
> Cc1c(/C=C(\C#N)C(=O)Nc2ccccc2F)cc(C#N)n1C
 : /	-10.4	87.2	93.6
> COc1ccccc1C(=O)N1CCCc2cc(C)ccc21
 : 102.4	-3.4	112.9	100.5
> CCCc1ccc(C2Sc3ccccc3NC3=C2C(=O)c2ccccc23)cc1 (configuration not stated)
 : 114.5	-22.8	98.3	80.1
> CCOC(=O)N1CCN(C(=S)Nc2ccc(Oc3ccccc3)cc2)CC1
 : 98.4	-7.3	117.6	94.8
> Oc1c(N=Nc2ccc3c(c2)OCO3)sc2nc3ccccc3n12
 : 106.5	-37.9	87.5	71.7
> O=C(O)Cn1ncn2c(c(-n3cccc3)c3c4c(sc32)CCCC4)c1=O
 : 99.4	-1.7	75.0	65.9
> CC(CC(=O)O)CC(=O)Nc1cccc(C(=O)O)c1 (configuration not stated)
 : 101.5	/	119.7	89.4
> Cc1onc(-c2ccccc2Cl)c1NC(=O)Nc1cccc(C(F)(F)F)c1
 : 98.6	-25.2	70.8	67.7
> COc1ccc(OC)c(C2c3c(-c4ccc(Br)cc4)n[nH]c3C(=O)N2c2ccc(Cl)cc2)c1 (configuration not stated)
 : 105.6	-27.0	108.1	93.4
> COc1cccc(-c2nnc(SC3CCOC3=O)n2C)c1 (configuration not stated)
 : /	-7.4	99.4	92.4
> COc1cc(/C=C2\N=C(c3cc(F)c(F)cc3Cl)OC2=O)cc(OC)c1OC
 : 106.5	-19.0	/	/
> O=C(CN1C(=O)c2ccccc2C1=O)Nc1ccc(N2CCOCC2)cc1
 : 98.0	-39.4	88.1	83.3
> CC(=O)NCCc1nc2ccccc2n1CCCCOc1ccc(Cl)cc1
 : 101.1	-11.1	121.2	81.0
> COc1ccc(Cl)cc1-n1cnc2sc(C)c(C)c2c1=O
 : /	0.3	100.9	90.9
> Cc1ccccc1N(C)C(=O)Cn1cnc2onc(C)c2c1=O
 : 98.2	3.7	89.9	101.3
> NC(=O)c1ncoc1-c1cccc(Cl)c1
 : 101.9	0.2	108.3	76.0
> Cc1nc(N=Nc2ccc(C(=O)O)cc2)c(COP(=O)(O)O)c(C=O)c1O
 : 97.0	4.5	/	/
> COc1ccc(/C=C/c2nc(-c3ccccc3O)n(-c3ccccc3)n2)cc1OC
 : 98.6	-28.5	101.5	91.0
> O=C(CCCN1C(=O)c2ccccc2C1=O)Nc1ccc(S(=O)(=O)NC2CCCCC2)cc1
 : 98.7	-13.6	100.1	88.1
> O=C(COc1ccccc1)Nc1ccccc1OCc1cc(=O)n2ccccc2n1
 : 100.4	/	79.6	90.3
> CCOC(=O)CSc1nnc(COc2cccc(C)c2)o1
 : 100.8	-4.4	115.0	101.5
> O=C(NCCOc1ccccc1F)c1ccccc1Nc1cccc2ccccc12
 : /	-12.7	87.3	77.8
> Cc1ccc2c(=O)c(C(=O)c3ccccc3)cn(CC(=O)Nc3ccc(C)c(F)c3)c2n1
 : 139.1	72.5*	/	/
> CCn1c(C(=O)NC2CCCCCC2)cc2oc3ccccc3c21
 : 106.6	/	111.3	94.5
> CC1CN(Cn2nc(-c3cccc(S(=O)(=O)N4CCOCC4)c3)oc2=S)CC(C)O1 (configuration not stated)
 : /	-26.0	97.8	93.1
> Cc1[nH]c2ccccc2c1C(c1ccccn1)N1CCN(CCO)CC1 (configuration not stated)
 : /	-16.4	92.9	83.0
> Cc1nn(C)c2c1c(C(F)(F)F)cc(=O)n2CC(=O)c1c(C)n(C)c2ccccc12
 : 106.2	-5.4	102.5	96.2
> CCOc1cc(C2C(C(=O)OC)=C(C)NC3=C2C(=O)c2ccccc23)ccc1OC (configuration not stated)
 : 99.7	/	106.8	83.8
> COc1ccccc1N(Cc1nc2nc(C)cc(=O)n2[nH]1)C(=O)C(C)(C)C
 : 99.4	-21.6	/	/
> COc1ccc(CNC(=O)CCS(=O)(=O)c2cc(Br)cc3c2N(C(C)=O)C(C)C3)cc1 (configuration not stated)
 : 104.7	-3.8	108.5	94.2
> CC(C)(C#N)C(O)c1ccccc1 (configuration not stated)
 : 101.1	9.3	102.7	104.1
> Cn1cnc(S(=O)(=O)Nc2n[nH]c(=S)s2)c1
 : 102.5	-4.3	72.0	58.0
> C/C=C1/C(C)C(C(F)(F)F)(C(F)(F)F)C(C#N)=C(N)N1c1ccc(C(N)=O)cc1 (configuration not stated)
 : /	6.5	99.6	105.2
> Cc1nn2c3c(cnc2c1-c1ccc(F)cc1)C(=O)CC(c1ccc(Cl)cc1)C3 (configuration not stated)
 : 100.8	-2.5	/	/
> Cc1ccccc1OCC(=O)Nc1ccc(NC(=O)c2cccs2)cc1
 : 101.4	/	105.0	81.1

Screens as filed in PubChem.
